# Autofluor counter: counter-screen for toxin protease inhibitors: compound fluorescence | AID 624483 | 3.1% of 360,000 active | compound autofluorescence counterscreen, microsphere flow cytometry; hits give high values | fluorescence intensity (test concentration not listed);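 active means at least 3 SD above the mean of all compounds, about 16000 in these data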;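 further: 100 nL of 1 mM stock went into each well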
# Starred values were filed as active, the others as inactive. Only part of the results is shown (hit frequency here may not be typical).
SMILES,Autofluor counter
Cc1nc(C(=O)N2CCC(C)(C(=O)NS(=O)(=O)C3CC3)C2)c(C)o1 (configuration not stated),2950
O=C1CCCC2=C1C1(CCCC1)N=C(Nc1nc3cc(-c4ccccc4)ccc3o1)N2,4592
c1cc2[nH]c3ccncc3c2cn1,3203
COc1ccc(C(=O)NN/C=C/C(=O)c2ccc(Br)cc2)cc1,2943
CCCS(=O)(=O)NC(=O)C1(C)CCCN(C(=O)c2nc3ccccc3s2)C1 (configuration not stated),3558
CC(C)n1c(=O)c2ccccc2n1S(C)(=O)=O,5989
CCn1c2ccccc2nc2cc3c(cc21)c(Cl)c(=O)c1ccccc13,3457
O=C(CC[C@H]1O[C@@H](n2cnc3c(NC(=O)c4ccccc4)ncnc32)[C@H](O)[C@@H]1O)NCC(F)(F)F,5442
Cn1ccc2c(N3CCCCCC3)cc3c(c21)C1CCC3O1 (configuration not stated),5722
CC(C)CNC(=O)C1(C)CCCN1C(=O)c1cccnc1Oc1ccccc1 (configuration not stated),3493
O=C(Nc1ccc(OCCO)cc1)c1csc([C@@H]2C[C@H](O)[C@@H](CO)O2)n1,3412
O=c1[nH]c(=S)[nH]c2c1[C@H](CCc1cccc(Cl)c1)O[C@H](C1CC1)C2,6826
CCC(c1nnnn1-c1ccc2c(c1)OCCO2)N1CCN(Cc2c(F)cccc2Cl)CC1 (configuration not stated),6108
c1ccc(CNc2cccnc2)cc1,3551
COC(=O)[C@@]1(Cc2ccc(F)cc2)[C@H]2c3cc(C(=O)N4CCCC4)n(CCN4CCNC4=O)c3C[C@H]2CN1C(=O)c1ccccc1,4113
C[C@H]1CN([C@@H](C)CO)C(=O)CCCn2cc(nn2)CO[C@@H]1CN(C)C(=O)Nc1ccc(F)cc1,4169
O=C(c1cc(C2CCCCN2C(=O)OCCF)on1)N1CCOCC1 (configuration not stated),3829
Cc1nc2ccc(C(=O)NCCCn3ccnc3)cn2c1N(C)CC1CCCCC1,2967
COc1ccccc1Cc1c(-c2ccc(C)cc2)nc2ccc(Cl)cn12,6349
COc1ccc(CCNC(=O)c2ccc(F)c(S(=O)(=O)N3CCCCC3)c2)cc1,3718
CCc1nc2c(OCc3ccc(Cl)cc3)cccn2c1N(C)C(=O)C1CC1,3088
COc1cccc(C(O)c2nc(-c3ccc(C)c(C)c3)cs2)c1 (configuration not stated),3834
Cc1c(CN(C)C(=O)C2CCC(=O)N(Cc3ccccc3F)C2)[nH]c2ccccc12 (configuration not stated),3665
CCN1C(=O)[C@@H]2[C@@H]3CN(S(=O)(=O)c4ccc(C)cc4)[C@@H](c4cccc5ccccc45)[C@@H]3C(=O)C[C@@H]2C1=O,5302
COc1ccccc1-c1cnc2c(c1)C(=O)N([C@@H](C)CO)C[C@@H](C)[C@@H](CN(C)C(C)=O)O2,3105

# Single entries from the list.
# `CCC(c1nnnn1-c1ccc2c(c1)OCCO2)N1CCN(Cc2c(F)cccc2Cl)CC1` (configuration not stated) | Autofluor counter = 6108
# `COc1ccc(C(=O)NN/C=C/C(=O)c2ccc(Br)cc2)cc1` | Autofluor counter = 2943
# `COc1cccc(C(O)c2nc(-c3ccc(C)c(C)c3)cs2)c1` (configuration not stated) | Autofluor counter = 3834

# (listing goes on)
SMILES,Autofluor counter
CC(C)n1ncc2c(C(=O)N3CCN(Cc4cccs4)CC3)cc(C3CC3)nc21,2915
COc1ccc(OC)c(CN2C(=O)c3ccccc3C2c2nnnn2C2CCCC2)c1 (configuration not stated),6187
COc1cc(Cn2c3ccc(NC(=O)CC(C)(C)C)cc3c(=O)n2C)ccc1F,4067
CC12CCC3C(C1)C(C(=O)O2)C(=O)OC3(C)C (configuration not stated),4047
COc1ccc2c(c1)CSC(c1ccccc1)C2=O (configuration not stated),3860
CC(C)C[C@H]1CN(CCCC[C@H]2CNC(=O)C(=O)N2Cc2ccccc2)C(=O)C(=O)N1Cc1ccccc1,4907
CCCCN1CC(N(C)CCN(C)C)CS1(=O)=O (configuration not stated),6076
CCCc1c(C(=O)N/N=C(\C)c2cccnc2)nnn1-c1nonc1N,2938
CCOc1cc(OCC)cc(C(=O)N2CCC[C@H]2C(=O)N2CCC[C@H]2C(=O)N(C)Cc2ccccc2)c1,5062
CCCc1nc2nc(C)c(NS(=O)(=O)c3ccc(C)c(C)c3)c(=O)n2[nH]1,3784
COc1ccc(C(c2nnnn2-c2c(C)cccc2C)N2CCC3(CC2)C(=O)NCN3c2ccccc2)cc1 (configuration not stated),5722
CC(C)CNC(=O)C1(C)CCCN1C(=O)CCc1cccs1 (configuration not stated),4134
CC1=C(C(=O)N(C(C)C)C(C)C)CC(CC(=O)NC(c2ccccc2)c2ccccc2)C(=O)N1CCCN1CCCC1=O (configuration not stated),5404
Cc1ccc(-c2cc(NC=O)c3ncc(-c4cnn(C)c4)n3c2)cc1,3887
Cc1ccc(Cc2c(-c3ccco3)nc3ccc(Cl)cn23)cc1,5915
COc1cccc(-c2cnc(C(O)c3cc(Cl)cc(Cl)c3)[nH]2)c1 (configuration not stated),3869
Cc1ccc(N2CC(C(=O)OCC(=O)Nc3c(C)cccc3C)CC2=O)cc1 (configuration not stated),3387
O=C1c2ccccc2C(c2nnnn2-c2ccc3c(c2)OCCO3)N1C1CC1 (configuration not stated),4084
Cc1ccc([C@@H]2CC(=O)[C@@H]3CN(S(=O)(=O)c4ccccc4C)[C@H](c4ccc(Cl)cc4)C[C@@H]3N2S(=O)(=O)c2ccc(C)cc2)cc1,3719
CN(Cc1cccc(C(F)(F)F)c1)C(=O)[C@H]1O[C@@H](n2ccc(N)nc2=O)[C@H](O)[C@@H]1O,5880
COc1cccc(C(NC(C)=O)c2nc(-c3csc4ccccc34)cs2)c1 (configuration not stated),3947
C[C@H](CO)N1C[C@H](C)[C@@H](CN(C)C(=O)c2cccnc2)Oc2ncc(Br)cc2C1=O,3613
Cc1noc(C)c1C(=O)N1CCC1(C)C(=O)NS(=O)(=O)c1ccccc1Cl (configuration not stated),3972
O=C(/C=C/c1ccccc1[N+](=O)[O-])OCC(=O)N1CCN(c2ccccc2)CC1,3496
O=C(Nc1nc(-c2ccc3c(c2)OCCO3)cs1)c1ccc(Br)o1,2919

# Entries above that have an aryl methoxy group (eleven):
SMILES,Autofluor counter
COc1ccc(C(=O)NN/C=C/C(=O)c2ccc(Br)cc2)cc1,2943
COc1ccccc1Cc1c(-c2ccc(C)cc2)nc2ccc(Cl)cn12,6349
COc1ccc(CCNC(=O)c2ccc(F)c(S(=O)(=O)N3CCCCC3)c2)cc1,3718
COc1cccc(C(O)c2nc(-c3ccc(C)c(C)c3)cs2)c1 (configuration not stated),3834
COc1ccccc1-c1cnc2c(c1)C(=O)N([C@@H](C)CO)C[C@@H](C)[C@@H](CN(C)C(C)=O)O2,3105
COc1ccc(OC)c(CN2C(=O)c3ccccc3C2c2nnnn2C2CCCC2)c1 (configuration not stated),6187
COc1cc(Cn2c3ccc(NC(=O)CC(C)(C)C)cc3c(=O)n2C)ccc1F,4067
COc1ccc2c(c1)CSC(c1ccccc1)C2=O (configuration not stated),3860
COc1ccc(C(c2nnnn2-c2c(C)cccc2C)N2CCC3(CC2)C(=O)NCN3c2ccccc2)cc1 (configuration not stated),5722
COc1cccc(-c2cnc(C(O)c3cc(Cl)cc(Cl)c3)[nH]2)c1 (configuration not stated),3869
COc1cccc(C(NC(C)=O)c2nc(-c3csc4ccccc34)cs2)c1 (configuration not stated),3947

# Next section:
SMILES,Autofluor counter
CCCOc1ccc(F)cc1-c1cc(C(=O)NCc2cccs2)[nH]n1,3047
NC(c1csc(Nc2ccc(C(=O)NCCO)cc2)n1)C1CCCCC1 (configuration not stated),3068
CC(=O)Nc1ccc(-c2ccnc3c2CC(C)(C(=O)Nc2cccc(C(F)(F)F)c2)O3)cc1 (configuration not stated),3721
CC(C)COC(=O)N1CCCCC1c1cc(C(=O)N2CCOCC2)no1 (configuration not stated),3474
CC(C)C(=O)Nc1ccc(C=C2C=Cc3ccccc32)cc1,3606
CCOC1=C2[C@@H](CN(S(=O)(=O)c3ccc(C)cc3)[C@H]2c2cccc3ccccc23)[C@H]2C(=O)N(C3CCCCC3)C(=O)[C@H]2C1,6183
COc1cc(Cl)ccc1OCc1cc(C(=O)N2CCN(C)C(=O)[C@@H]2C)no1,3479
CC(C)(C(=O)N1CCC1(C)C(=O)NS(=O)(=O)c1ccc(Br)cc1)c1ccccc1 (configuration not stated),3373
CN(C)CCCNc1nc2cc(-c3ccc(C(=O)N4CCN(C)CC4)cc3)sc2c(=O)n1C,2763
COc1cc(CN2C[C@@H](CO)O[C@@H](n3cnc4c(N5CCN(c6ccccc6)CC5)ncnc43)C2)cc(OC)c1OC,3816
Cc1cn([C@H]2C[C@H](O)[C@@H](CNC(=O)[C@H](N)Cc3cn(COCc4ccccc4)cn3)O2)c(=O)[nH]c1=O,3953
CCCS(=O)(=O)NC(=O)C1(C)CCCN(C(=O)c2ccccc2Br)C1 (configuration not stated),2762
CCOc1cc(/C=C/C(=O)OCC(=O)N(CC)C2CCS(=O)(=O)C2)cc(Cl)c1OC (configuration not stated),3514
Cc1ccc2c(=O)n3c(nc2c1)C(Cc1ccc(O)cc1)NC(=O)c1cc2ccccc2cc1-3 (configuration not stated),3422
CC(=O)OC[C@@H]1CN(Cc2ccccc2)C[C@H](n2cnc3c(N(C)C(C)C)ncnc32)O1,3851
CN(C)c1nn2c(-c3ccccc3)nnc2o1,4092
CCCCNC(=O)C1(C)CCCCN1Cc1ccc(-c2ccccc2)cc1 (configuration not stated),4059
CN1C(=O)[C@H]2[C@@H](c3ccc(C(F)(F)F)cc3)N[C@]3(CCCN(Cc4ccc(Br)cc4)C3=O)[C@H]2C1=O,3601
CC(=O)CCC(=O)CNC(=O)CC[C@H]1O[C@@H](n2ccc(=O)[nH]c2=O)[C@H](O)[C@@H]1O,4158
CC1(C(=O)NS(=O)(=O)c2ccccc2)CCN1C(=O)Cc1cc(F)ccc1F (configuration not stated),3655
COC(=O)CN(CCCl)P1(=O)OCCCN1CCCl (configuration not stated),5847
N#Cc1ccc(OCC(=O)NCCCN2CCCC2=O)cc1,3808
C[C@@H]1CCCCO[C@H](CN(C)C(=O)CCC(F)(F)F)[C@@H](C)CN([C@H](C)CO)C(=O)c2cc(NC(=O)c3ccncc3)ccc2O1,3649
COc1ccc(OCCN2CCC(C(=O)NC(c3ccc(F)cc3)c3ncccc3C)CC2)cc1 (configuration not stated),3601
Cc1cc(C)c2c(CN3CCCCCCC3)cc(=O)oc2c1,6154

# The results go on.
SMILES,Autofluor counter
COc1cc(NC(=O)c2ccc(-c3ccnn3C)c3ccoc23)cc(OC)c1OC,3815
O=C(COC(=O)c1ccc(O)cc1)Nc1cc(S(=O)(=O)N2CCCCCC2)ccc1Cl,3725
COc1ccc(C(=O)N2CCCCC2c2cc(C(=O)Nc3ccc(F)c(Cl)c3)no2)cc1 (configuration not stated),3748
O=C1NC[C@H](CCCCN2C[C@H](Cc3ccc(O)cc3)N(Cc3ccccc3)C(=O)C2=O)N(Cc2ccccc2)C1=O,5781
CC(OC(=O)CCNS(=O)(=O)c1ccc(Cl)cc1)C(=O)N(C)Cc1ccccc1 (configuration not stated),3713
O=C(Nc1nc(OCCN2CCCC2=O)cnc1/C=C\c1ccccc1)c1cc2ccccc2s1,3479
Cc1cc(C(=O)N2CCCC(C)(C(=O)NS(=O)(=O)C3CC3)C2)n(C(C)(C)C)n1 (configuration not stated),4036
CCCCn1nnnc1C1(C)CCC(=O)N1CCOC (configuration not stated),5490
O=C(Cn1c(=O)oc2cc(S(=O)(=O)N3CCCC3)ccc21)Nc1ccccn1,5693
COc1cccc(-c2ccc3nccn3c2)c1,3988
O=S1(=O)CC(N2CCN(CC3CC3)CC2)CN1Cc1ccc(F)cc1 (configuration not stated),5418
CC1(C(=O)Nc2cccc3ncccc23)CCN1C(=O)Cc1ccc(-c2ccccc2)cc1 (configuration not stated),3402
CC(C)C[C@H]1COc2cccc(N3CCC[C@H]3CO)c2S(=O)(=O)N1,6218
CCCNC(=O)C1(C)CCCN(C(=O)c2oc3ccccc3c2C)C1 (configuration not stated),3632
O=C(COC(=O)c1cccc(Br)c1)NC1CCCCCCC1,3746
CC(C)=CCC[C@H](C)CC1Cc2[nH]c(=S)[nH]c(=O)c2C(c2ccc(Cl)cc2)O1 (some centres not stated),4444
O=C(Nc1cc(S(=O)(=O)N2CCCC2)ccc1OCC(F)(F)F)c1ccncc1,4039
NC(CCc1ccccc1)c1csc(Nc2nccc(C(F)(F)F)n2)n1 (configuration not stated),3652
O=c1[nH][nH]c2c1C(c1ccc(Cl)c(Cl)c1)OC(CCc1ccccc1)C2 (configuration not stated),5857
CC(C)C1CCN(C(=O)C2CCC(=O)N(C3CCCCCC3)C2)CC1 (configuration not stated),3636
COc1ccc(C2=Nc3ccccc3NC(=O)C2N(CCc2ccccc2)C(=O)c2cccs2)cc1 (configuration not stated),6801
CC(=O)Nc1ccc(NC(=O)CCCN2C(=O)C(c3ccccc3)Oc3cccnc32)cc1 (configuration not stated),3950
CC1(C(=O)Nc2ccc3c(c2)OCCO3)CCC(=O)N1CCc1c[nH]c2ccccc12 (configuration not stated),4487
O=C(CSCC(=O)OCC(=O)N1CCN(C(=O)c2ccco2)CC1)Nc1ccc(Cl)cc1,2921
c1ccc(-c2ccc3nncn3c2)cc1,3908

# The list continues.
SMILES,Autofluor counter
O=C1NC[C@@H](CCCCN2CCN(Cc3ccccc3)C(=O)C2=O)N(CC2CCCCC2)C1=O,4221
C[C@@H]1CN([C@@H](C)CO)C(=O)CCCn2nncc2CO[C@@H]1CN(C)S(=O)(=O)c1ccc2c(c1)OCCCO2,3508
Cc1c(C(=O)N(C)Cc2ccc(F)cc2)sc(=O)n1Cc1ccc(Cl)c(Cl)c1,5737
NC(c1ccccc1)c1csc(Nc2ccc(C(F)(F)F)cn2)n1 (configuration not stated),3429
Cc1cc(Br)cn2c(Cc3ccsc3)c(-c3cccc(Br)c3)nc12,5796
CC1=NN(c2ccccc2)C(=O)C1C(=S)SC1CC(=O)NC1=O (configuration not stated),3457
Cc1nc2ccc(C(=O)Nc3ccc4c(c3)OCC(=O)N4)cn2c1N(C)C(=O)CCc1ccccc1,3706
CCOC(=O)C1=C(C)OC(=CC=Cc2ccccc2)C1=O,3645
Fc1cccc(Cc2c(-c3ccco3)nc3ccc(Cl)cn23)c1,6570
CN(C)c1ncnc2c1ncn2[C@H]1CN(Cc2ccc(Cl)cc2)C[C@@H](CO)O1,3554
